# MbtI inh: inhibitors of Mycobacterium tuberculosis siderophore enzyme MbtI; P9WFX0; purified MbtI enzyme, fluorescence intensity read-out; inhibition, %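 (about 17 µg/mL by stock and volumes)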; hit rate 0.89% among 100,000; AID 493033;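 active means above 50% in both replicates, above 80% if mildly self-fluorescent; inactive means the rest, strongly fluorescent compounds included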;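 further: 0% = mean of negative and 100% = mean of positive controls; one replicate is shown; some compounds called inactive have numbers as strong as hits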
# Mtb MenB inh: inhibitors of Mycobacterium tuberculosis MenB enzyme; hit rate 0.43% among 100,000; inhibition, %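 (about 12 µg/mL by stock and volumes)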; AID 540299; MenB enzyme assay, absorbance read-out; some hits fall short of the stated cut;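 active means mean of two replicates above 30%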;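 further: 0% = no compound and 100% = wells with inactive enzyme; the first replicate is given; strong numbers were not always called active; inactives centre near -10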
# Target sequence (P9WNP5 whole entry, looked up): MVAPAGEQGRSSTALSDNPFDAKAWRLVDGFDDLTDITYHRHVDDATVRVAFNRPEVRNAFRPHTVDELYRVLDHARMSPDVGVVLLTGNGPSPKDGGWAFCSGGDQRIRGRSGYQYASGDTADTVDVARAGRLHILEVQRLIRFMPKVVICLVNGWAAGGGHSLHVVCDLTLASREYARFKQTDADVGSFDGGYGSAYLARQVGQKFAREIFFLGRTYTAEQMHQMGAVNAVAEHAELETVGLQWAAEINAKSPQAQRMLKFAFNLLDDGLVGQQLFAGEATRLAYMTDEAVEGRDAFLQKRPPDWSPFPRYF
# Polio RdRp inh: inhibitors of poliovirus RNA polymerase binding and polymerization. hit rate 0.66% among 150,000. poliovirus polymerase elongation, fluorescence polarization; active compounds read low. % elongation, % (compound at 16.7 µg/mL); in the data active means % elongation below about 90%; further: some results filed as inactive read as strong as hits
# Target sequence (P03300 1749-2209 limits assumed): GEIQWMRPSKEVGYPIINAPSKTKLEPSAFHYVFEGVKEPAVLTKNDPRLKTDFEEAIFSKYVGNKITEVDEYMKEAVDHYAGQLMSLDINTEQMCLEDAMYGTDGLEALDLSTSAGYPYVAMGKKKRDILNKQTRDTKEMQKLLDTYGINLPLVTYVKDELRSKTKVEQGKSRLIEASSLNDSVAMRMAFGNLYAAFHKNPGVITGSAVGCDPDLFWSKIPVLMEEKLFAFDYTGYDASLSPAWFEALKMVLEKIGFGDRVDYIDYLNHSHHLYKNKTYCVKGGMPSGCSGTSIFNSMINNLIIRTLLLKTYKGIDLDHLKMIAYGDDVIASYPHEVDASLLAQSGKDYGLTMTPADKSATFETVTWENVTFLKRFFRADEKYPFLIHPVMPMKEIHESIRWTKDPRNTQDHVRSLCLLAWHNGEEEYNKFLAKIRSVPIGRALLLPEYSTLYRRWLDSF
# Polio RdRp inh intensity: further read-out of Polio RdRp inh, marked with its call; % elongation; measured here: total intensity read-out; formula for this scale not given here;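 total fluorescence in place of polarization; lower means less elongation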
# * hit, by the source's call; / = no result given; & = joins results of further samples.
SMILES,MbtI inh,Mtb MenB inh,Polio RdRp inh,Polio RdRp inh intensity
COc1ccccc1C1(CC(=O)O)CCOC(C(C)C)C1 (stereo unspecified),-10,-3,101,103
COc1ccc(S(=O)Cc2ccc(C(=O)NC(C)C)o2)cc1 (stereo unspecified),-8,5,103,102
CCOC(=O)c1[nH]c(COC(=O)C2COc3ccccc3O2)c(C(=O)OCC)c1C (stereo unspecified),-15,-39,112,122
COc1ccc(CN2C(=S)N(c3ccccc3)C(=O)C2CC(=O)Nc2ccccc2)cc1 (stereo unspecified),0,5,102,105
CCNc1sc(S(C)(=O)=O)nc1S(=O)(=O)c1ccc(C)cc1,10,-24,108&99,105&100
CN(C1CCCCC1)S(=O)(=O)c1ccccc1N=Cc1c(O)[nH]c(=O)[nH]c1=O,5,8,101,104
CC(C)N(C)C1CCN(C(=S)Nc2ccccc2Cl)CC1,9,-28,98,96
Cc1ccc(-c2cc(C(F)F)n3ncc(C(=O)Nc4cn(C)nc4C)c3n2)cc1,-10,-40,103,102
COc1ccc(S(=O)(=O)N2CCCCCC2)cc1C(=O)N(Cc1nnc(-c2ccccc2Cl)o1)C(C)C,-2,-10,104,103
CCOc1ccc(-c2cc3ccc(N(CC)CC)cc3oc2=O)cc1,/,-5,39,255
COc1ccccc1-n1cnnc1SCC(=O)N(C)CC(=O)Nc1ccccc1Cl,6,-15,104,100
O=C(COc1ccccc1O)Nc1cccc(Br)c1,-14,/,101,96
C#CCSc1nc2ccccc2c(=O)n1-c1ccccc1,15,2,100,102
CC(=O)N[C@@H](Cc1c[nH]c2ccccc12)C(=O)NC1CC1,29,-8,99,96
COc1ccc(C(O)Cc2nc3ccccc3n2C)cc1OC (stereo unspecified),-6,-16,105,102
COc1cccc(-n2cnnc2SC(C#N)Cc2ccc(C)cc2)c1 (stereo unspecified),18,0,110,115
N#Cc1c(NC(=O)CCCCl)sc2c1CCCC2,-10,/,100,100
Cc1ccsc1/C=C1/CC/C(=C\c2sccc2C)C1=O,6,-10,104,109
Cc1ccc(CS(=O)Cc2ccc(C(=O)NC3CCCc4ccccc43)o2)cc1 (stereo unspecified),-3,-1,100,104
O=C(N/N=C/c1ccco1)c1cc(C23CC4CC(CC(C4)C2)C3)[nH]n1,7,-28,106,102
CCc1ccc(N(CC)C(=O)c2cc3c(=O)n(CC)c4ccccc4c3s2)cc1,14,-11,99,97
O=c1c2ccccc2nc(C(F)(F)F)n1-c1ccccc1,/,-16,104,108
CCc1cccc(NC(=O)C(Cc2ccccc2)NC(=O)C2CCC(C)CC2)c1 (stereo unspecified),14,-12,98,94
O=C1Nc2ccccc2C12OC1CCCCC1O2 (stereo unspecified),-15,-3,101,104
CC(C)Cn1c(NN)nc2c1c(=O)[nH]c(=O)n2C,8,-36,101,103
Cc1cccc2cc(C#N)c(SCCN3CCCCC3)nc12,28,22,100,104
Cc1oc(-c2ccc(C(=O)NC(C)C)cc2)nc1COc1ccccc1,-11,-7,105,101
CN(C)C(=O)CCSc1ccc(Cl)cc1,/,-12,101,110
COc1ccc(CCNC(=S)N(Cc2ccco2)Cc2cc3cc(OC)c(OC)cc3[nH]c2=O)cc1OC,-367,-24,100,102
O=C(CC(c1ccccc1)C1C(=O)NC(=S)NC1=O)c1cccs1 (stereo unspecified),/,-27,101,101

# Ordered by number of heavy atoms (smallest number first): part of the list above.
SMILES,MbtI inh,Mtb MenB inh,Polio RdRp inh,Polio RdRp inh intensity
CN(C)C(=O)CCSc1ccc(Cl)cc1,/,-12,101,110
N#Cc1c(NC(=O)CCCCl)sc2c1CCCC2,-10,/,100,100
Cc1ccsc1/C=C1/CC/C(=C\c2sccc2C)C1=O,6,-10,104,109
O=c1c2ccccc2nc(C(F)(F)F)n1-c1ccccc1,/,-16,104,108
Cc1cccc2cc(C#N)c(SCCN3CCCCC3)nc12,28,22,100,104
COc1ccc(C(O)Cc2nc3ccccc3n2C)cc1OC (stereo unspecified),-6,-16,105,102
O=C(CC(c1ccccc1)C1C(=O)NC(=S)NC1=O)c1cccs1 (stereo unspecified),/,-27,101,101
COc1cccc(-n2cnnc2SC(C#N)Cc2ccc(C)cc2)c1 (stereo unspecified),18,0,110,115
Cc1oc(-c2ccc(C(=O)NC(C)C)cc2)nc1COc1ccccc1,-11,-7,105,101
Cc1ccc(CS(=O)Cc2ccc(C(=O)NC3CCCc4ccccc43)o2)cc1 (stereo unspecified),-3,-1,100,104
COc1ccc(CCNC(=S)N(Cc2ccco2)Cc2cc3cc(OC)c(OC)cc3[nH]c2=O)cc1OC,-367,-24,100,102

# Remaining list, next part
SMILES,MbtI inh,Mtb MenB inh,Polio RdRp inh,Polio RdRp inh intensity
O=C(Nc1nccs1)c1ccccc1NS(=O)(=O)c1ccc(F)cc1,108,12,100,101
COc1ccc(C2C(C(=O)N3CCCCC3)=C(C)NC3=C2C(=O)CCC3)cc1O (stereo unspecified),-1,5,101,102
O=C(CCn1nnc(-c2cccs2)n1)NCc1ccccc1Cl,0,14,100,99
CCOC(F)(C(N)=O)C(F)(F)F (stereo unspecified),-4,1,102,104
Cc1c(Br)c(C(F)(F)F)nn1CC(=O)N1CCOCC1,/,9,99,105
COc1ccc(OC)c(NC(=O)c2cccnc2)c1,/,-10,97,95
Cc1ccc(CNC(=O)CN2C(=O)C3(OCCCO3)c3ccccc32)cc1,-2,-22,101,103
CCSC1(SCC)N=C(N)C2(C#N)C(c3cccc(OC)c3)C12C#N (stereo unspecified),41,20,101,104
Cc1ccc(N2C(=O)N(Cc3c(C)noc3C)C(=O)C2C)cc1 (stereo unspecified),-8,-12,101,103
NC(=O)CN1CCN(C/C=C/c2ccccc2)CC1,-18,6,102,103
Cc1ccc(/C=N/NC(=O)C2=NNC(=O)C2C)o1 (stereo unspecified),32,21,102,100
C=CCNC(=O)c1ccc2c(c1)nnn2C,51,-39,102,102
CC(N)Cn1cccn1 (stereo unspecified),9,0,102,106
COC(=O)CSC1=C(C#N)C(=O)NC(/C=C/c2ccccc2)S1 (stereo unspecified),16,5,102,100
COc1ccc(-c2nc3n(c(=O)c2C#N)CCS3)cc1,73,20,102,103
C=CCN1C(=O)/C(=C/c2c(Sc3ccccc3)nc3ccccn3c2=O)SC1=S,-5,-25,116,123
Cc1nc2c(C(=O)NCCc3ccccc3Cl)c[nH]n2c(=O)c1Cl,74,-5,102,108
O=C1c2cccc3c(N4CCCCC4)ccc(c23)C(=O)N1c1ccccn1,-2,36*,78,195
O=C(CSc1nnc2c(n1)[nH]c1ccccc12)OCN1C(=O)c2ccccc2C1=O,-3,-35,102,101
CCc1ccc(C(=O)NCC2(c3ccccc3)CCOCC2)o1,7,33,104,102
CS(=O)(=O)Nc1cccc(C2=NN(C(=O)CCC(=O)O)C(c3cccc(F)c3)C2)c1 (stereo unspecified),2,2,102,100
COc1ccc(-c2noc(CNC(C)(C)C)n2)cc1OC,9,-21,99,105
Cc1ccc(-n2c(SCC(=O)NC(C)(C)C)nc(O)cc2=O)cc1,-10,-167,121,133
Cc1ccc2c(c1)C1CN(C)CCC1N2C(=O)c1cccs1 (stereo unspecified),15,-2,103,111
CCOC(=O)c1c(O)cc2ccccc2c1O,-20,-135,101,104
CC(C)(C)NC(=O)c1cnc2n(c1=O)CCS2,0,-11,101,103
C=CCn1nnnc1SCC(=O)c1ccc(Cl)c(Cl)c1,1,-42,99,102
COc1cc(C)nc(NN)n1,-11,-42,100,105
CCOC(=O)c1ccc2c(c1)nc(SCc1nc3ccccc3s1)n2CC,-18,-18,118,123
Cc1nn(-c2ccccc2)c(N)c1N=Nc1cccnc1,7,-302,104,98
CC(NS(=O)(=O)c1cc(C(F)(F)F)ccc1Cl)C(=O)N1CCN(c2ccccc2)CC1 (stereo unspecified),1,-33,103,99
CC(C)CCN(C(=S)Nc1ccc(C(C)C)cc1)C1CCN(C(C)C)CC1,-5,-1,101,102
CCCN(CCC)C(=O)c1sc2nc(-c3ccc(OC)cc3)cn2c1C,1,-10,101,103
O=c1[nH]c(CN2CCOCC2)nc2ccccc12,-1,-13,70*,75*
Cc1ccc(N(CC(=O)NCc2ccco2)S(=O)(=O)c2ccc(C)cc2)cc1,4,-13,102,104
COc1ccc2cc(CCNC(=O)C3CCCCC3)c(=O)[nH]c2c1,9,-14,102,103
OCN1CCCC1,-7,/,102,103
CC1=C(C(=O)Nc2ccc(Br)cc2F)C2(CCN(S(C)(=O)=O)CC2)OC1=O,-10,-19,101,102
Nc1nc(-c2ccccc2)cc(=S)s1,/,-140,97,83
CN(c1ccccc1)S(=O)(=O)c1cccs1,-8,-15,101,103
O=C(Cn1cnc2scc(-c3ccccc3)c2c1=O)NCc1ccco1,16,5,100,102
NS(=O)(=O)c1ccc(-n2cccc2/C=C2/C(=O)NN(c3ccccc3)C2=O)cc1,12,-102,102,101
CN(C(=O)CNC(=O)c1ccc(Cl)cc1)C1CCCCC1,-15,-12,104,103
C=CCn1c(=S)sc2c(=O)[nH]cnc21,9,-8,103,105
COc1ccc2nc(NC(=O)COC(=O)c3cccc(S(=O)(=O)N4CCOCC4)c3)sc2c1,11,-18,106,109
O=C(NCc1ccco1)c1ccc(S(=O)(=O)N2CCCC2)cc1,-15,-2,106,101
COc1ccccc1NC(=O)CC1COc2ccccc2O1 (stereo unspecified),-1,2,101,103
CCN(CCO)C(=O)C12CCC(C)(C(=O)C1)C2(C)C (stereo unspecified),-11,-21,101,104
O=C(COc1coc(CN2CCc3ccccc32)cc1=O)c1ccccc1,10,-34,104,107
CC(=O)N1CCc2cc(S(=O)(=O)CCC(=O)Nc3ccc(C)cc3Cl)ccc21,0,-2,104,103
# The results go on:
SMILES,MbtI inh,Mtb MenB inh,Polio RdRp inh,Polio RdRp inh intensity
Cn1c(C(=O)Nc2ccc3c(c2)OCCO3)cc2c(=O)[nH]c3ccccc3c21,-8,-33,103,102
Cn1nc(-c2ccc(Cl)cc2)c2cc(C(=O)N3CCN(c4cccc(Cl)c4)CC3)sc21,3,-23,99,101
Cc1cccc(CN2CCC(CNC(=O)NCc3noc4ccccc34)CC2)c1,-7,-3,101,105
O=C(CCl)NCc1ccccc1,-8,/,103,106
NNC(=O)c1csc(COc2cc(Cl)cc(Cl)c2)n1,-2,9,100,98
CCOC(=O)c1ccc(N2COc3ccc4c5c(c(=O)oc4c3C2)CCC5)cc1,-362,-27,102,102
CC(C)C1C(=O)Nc2ccc(S(=O)(=O)NCc3ccccc3)cc21 (stereo unspecified),-30,-2,101,103
OC12CCCCC1C(c1ccc(Cl)cc1Cl)NCC2 (stereo unspecified),/,-1,104,97
Cc1cccn2cc(CSc3nc4ccccc4o3)nc12,6,18,102,105
Nc1ccc2c(c1)C(=O)N(CCC(=O)O)C2=O,-3,-78,97,106
Cc1ccccc1NC1CC(C)Nc2c(C)cccc21 (stereo unspecified),1,3,105,105
Cc1cc2ccccn2c1C(=O)c1nc(N2CCN(c3ccc(F)cc3)CC2)ncc1Cl,-8,-38,101,104
CCN1CCN(CCNC(=O)C2CCC(Cn3c(=S)[nH]c4ccccc4c3=O)CC2)CC1 (stereo unspecified),-8,6,98,102
Cc1cccc(OCCBr)c1,-3,/,102,107
COc1ccc(C/C(C)=N/NC(=O)c2cccs2)cc1,13,-42,98,85
COc1ccc(C(=O)N2C(=O)N(c3ccccc3)C3(C)CC2c2ccccc2O3)cc1 (stereo unspecified),-8,-13,103,103
CC(C(=O)NCc1ccc(Cl)cc1)n1cccc1C(=O)c1ccccc1 (stereo unspecified),-11,-8,101,101
CCOC(=O)C1CCN(C(=O)CSc2ccc(Cl)cc2)CC1,12,/,104,96
CC(=O)NCC(=O)N1CCN(Cc2ccc3c(c2)OCO3)CC1,-2,-26,103,103
CCC1(C)OC(=O)N(CCc2c(C)[nH]c3ccccc23)C1(C)O (stereo unspecified),/,0,108,99
CC(=O)N1CCc2cc3nc(C)cc(C)c3cc21,111,-6,99,104
CCOC(=O)c1nn(-c2ccccc2)c(N=Nc2ccc3c(c2)OCO3)c1O,-5,-17,100,101
CN(C)CCNc1ncnc2ccccc12,-6,-36,101,97
CCN(CC)CCn1cnc2ccccc21,/,2,106,105
O=C(CCCc1ccccc1)NC1CCCC1,-9,-10,103,101
CCOC(=O)C1=C(O)CCN(C)C1,-6,-6,101,103
O=C(N1CCOCC1)C12CC3CCC(CC(C3)C1)C2,/,-21,107,113
CCCC[C@H]1C(=O)O[C@H](C)[C@H](NC(=O)c2cccc(NC=O)c2OC)C(=O)O[C@@H](C)[C@@H]1OC(=O)CC(C)C,2,-32,102&100,99&96
Cc1ccc(Nc2nc3ccccc3s2)cc1Cl,-5,-28,109,109
O=c1c(Cl)c(NCc2ccccn2)cnn1C12CC3CC(CC(C3)C1)C2,6,-22,99,100
Cc1c(NC(=S)N2CCN(c3ccc(F)cc3)CC2)c(=O)n(-c2ccccc2)n1C,-12,-21,100,104
Cc1cccc(-c2nc3sc(C)cc3c(=O)o2)c1,-4,8,102,102
CC1(C)C2CC1[C@](C)(O)[C@H](O)C2 (stereo partly specified),10,-20,99,98
CN(C)CC(O)c1ccc2cc[nH]c2c1 (stereo unspecified),-11,-11,104,109
Cc1cccc(-c2noc(CN(C(=O)/C=C/c3ccccc3Cl)C(C)C)n2)c1,-4,-32,103,103
